KCNQ2 inh – KCNQ2 potassium channel inhibitors, primary screen, cell-based, CHO-K1, FluxOR thallium flux, B-score (AID 2156). actives 1.1% (n = 310,000). 20 min; hits give low values; only compounds with negative scores are shown here; some inactives read as strong as hits. B-score at 10 µM;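 active means fluorescence ratio B-score at most minus 3 library SDs, with starting brightness B-score within 2 library SDs, cut at about -5.5 in these data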
Target sequence (O88943 whole entry, looked up): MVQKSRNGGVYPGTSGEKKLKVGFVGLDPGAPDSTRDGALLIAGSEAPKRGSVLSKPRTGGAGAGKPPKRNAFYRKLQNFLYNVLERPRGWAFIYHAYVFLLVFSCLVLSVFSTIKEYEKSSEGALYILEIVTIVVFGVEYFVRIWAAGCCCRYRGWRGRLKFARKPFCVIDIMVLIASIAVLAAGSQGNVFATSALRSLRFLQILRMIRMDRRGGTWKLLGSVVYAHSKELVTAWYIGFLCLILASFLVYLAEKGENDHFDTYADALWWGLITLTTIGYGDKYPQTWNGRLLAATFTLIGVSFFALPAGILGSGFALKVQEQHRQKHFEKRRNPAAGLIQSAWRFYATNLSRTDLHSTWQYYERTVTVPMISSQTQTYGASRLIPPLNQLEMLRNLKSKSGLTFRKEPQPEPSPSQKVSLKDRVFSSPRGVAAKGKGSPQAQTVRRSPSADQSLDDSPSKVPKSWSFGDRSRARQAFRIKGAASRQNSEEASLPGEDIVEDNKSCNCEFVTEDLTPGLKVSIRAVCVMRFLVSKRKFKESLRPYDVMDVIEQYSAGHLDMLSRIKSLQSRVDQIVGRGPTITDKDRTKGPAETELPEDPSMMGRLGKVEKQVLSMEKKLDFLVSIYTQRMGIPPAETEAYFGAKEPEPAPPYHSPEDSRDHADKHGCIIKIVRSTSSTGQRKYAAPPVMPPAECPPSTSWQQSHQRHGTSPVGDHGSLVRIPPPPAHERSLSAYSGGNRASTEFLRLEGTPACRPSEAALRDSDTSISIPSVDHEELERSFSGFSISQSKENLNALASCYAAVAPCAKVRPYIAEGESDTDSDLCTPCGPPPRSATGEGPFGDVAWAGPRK
KCNQ2 inh baseline – also measured in KCNQ2 inh; calls as there; B-score; measured here: initial fluorescence intensity artifact check;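 brightness before thallium and not channel activity; 0 = typical well and far values either way flag optical interference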
* hit, by the source's call; i = inactive.

Results follow in this order: KCNQ2 inh, KCNQ2 inh baseline
- O=C(NC(=S)NCC1CCCO1)c1ccccc1Br (stereo unspecified)
 : i, 1.27
- CC(C)(C)NS(=O)(=O)c1cc2c3c(c1)CCN3C(=O)CC2
 : i, 0.29
- Cc1onc(-c2ccccc2Cl)c1C(=O)N1CCN(c2cccc(Cl)c2)CC1
 : i, 3.29
- O=C(c1ccco1)c1nc2c(n1O)CCCCC2
 : i, 2.53
- CN1C(C)(C)CC(=NOC(=O)c2ccccc2)CC1(C)C
 : i, 0.1
- COc1ccc(F)cc1S(=O)(=O)N1CCN(Cc2ccc3c(c2)OCO3)CC1
 : i, 0.42
- C=CCn1c(SCc2ccccc2)nc2c1c(=O)[nH]c(=O)n2C
 : i, -0.02
- CCOC(=O)/C(=N\Nc1cc(Cl)ccc1Cl)N1CC(C)OC(C)C1 (stereo unspecified)
 : i, 2.21
- CC(C)(C)c1ccccc1NC(=S)NC1CCCCC1
 : i, -0.7
- COC(=O)c1cc(=O)n(-c2ccc(C(F)(F)F)cc2)[nH]1
 : i, -0.41
- CCn1c(=O)c2cc(C(=O)NCC(OC)OC)sc2c2ccccc21
 : i, 0.94
- CC(=O)N(C)c1nc(-c2ccc(Cl)cc2)cs1
 : i, 1.52
- Cc1ccc(OCc2cc(C(=O)NCc3cnn(-c4cccc(F)c4)c3)no2)cn1
 : i, -0.02
- C=CCN1c2ccccc2[C@]23C[C@@H](C(=O)OC)N(C(=O)c4cc(C)oc4C)C2=NC(C(=O)OC)=C(C(=O)OC)[C@H]13
 : i, -1.38
- Cc1[nH]c2ccccc2c1CCN(Cc1cccnc1)C(=S)Nc1cccc(F)c1
 : i, 0.56

The results go on:
Results follow in this order: KCNQ2 inh, KCNQ2 inh baseline
- COc1ccc(C23NCCN2C(=O)c2ccccc23)cc1 (stereo unspecified)
 : i, -0.09
- O=C(Cc1cccc2ccccc12)N/N=C/C=C/c1cccc([N+](=O)[O-])c1
 : i, 0.07
- Cc1ccccc1NC(=O)c1cnn(-c2ccccc2)c1C
 : i, 1.68
- OC(COc1ccc2c(c1)OCO2)CN1CCN(c2ccc(F)cc2)CC1 (stereo unspecified)
 : i, -0.73
- CN(CC(=O)Nc1ccc(F)c(Cl)c1)S(=O)(=O)c1ccc2c(c1)n(C)c(=O)c(=O)n2C
 : i, 0.13
- O=C(CN(Cc1ccccc1F)S(=O)(=O)c1ccc(Cl)cc1)NCCC1=CCCCC1
 : i, -0.53
- CCCNC(=O)c1nc(C)n(-c2ccc([N+](=O)[O-])cc2)n1
 : i, 0.77
- O=C(CN1CCN(CC(=O)Nc2cccc(F)c2)CC1)Nc1ccc(-c2ccccc2)cc1
 : i, -0.26
- COc1ccc(S(=O)(=O)N2CCCCC2)cc1Br
 : i, -0.17
- O=C(C=C1CCN(c2ncc(C(F)(F)F)cc2Cl)CC1)NNC(=O)Nc1ccc(Cl)cc1
 : i, 0.89
- Clc1ccccc1-c1nnc(-c2ccccc2Cl)o1
 : i, -0.13
- CCN(CC)C(=O)c1ccc(COc2ccccc2Cl)cc1
 : i, -0.98
- Nc1nonc1NN=C1CCCCC1
 : i, -0.92
- Cc1ccc(Cn2nc(-c3ccccc3)nc2-c2ccccc2)cc1
 : i, -0.02
- O=C(NCCCN1CCOCC1)c1ccc(-c2ccc(Cl)cc2)o1
 : i, -0.49

Next part.
Results follow in this order: KCNQ2 inh, KCNQ2 inh baseline
- O=C(NCc1ccco1)C(Cc1ccccc1)N1C(=O)c2ccccc2C1=O (stereo unspecified)
 : i, -0.64
- CCC(C)NCCOc1cc(C)cc(C)c1C (stereo unspecified)
 : i, -0.03
- Cc1ccc(C)c(C(=O)COC(=O)CN2C(=O)C3C4CCC(C4)C3C2=O)c1 (stereo unspecified)
 : i, 0.21
- COC(=O)C1=C(C)NC2=C(C(=O)CCC2)C1c1cn(Cc2ccc(Cl)cc2Cl)nc1-c1ccccc1 (stereo unspecified)
 : i, -1.1
- CCn1c(CSc2nc3ccccc3[nH]2)n[nH]c1=S
 : i, -0.25
- COC(=O)c1c(=O)n(O)c2ccc(OC)cc2[n+]1[O-]
 : i, 5.02
- COc1cccc(CSc2nc(N)cc(N)n2)c1
 : i, -0.87
- Cc1ccc(-c2nc(CSCC(=O)NCCCN3CCOCC3)c(C)o2)cc1
 : i, 1.35
- CCCS(=O)(=O)N1CCCC(C(=O)NCC(OC)OC)C1 (stereo unspecified)
 : i, 2.15
- Cc1ccc(N)c(C(=O)CCCCC(=O)O)c1
 : i, -0.02
- Cc1ccc(C)c(NC(=O)C(Sc2nncn2C)c2ccccc2)c1 (stereo unspecified)
 : i, 1.28
- COc1cc(/C=C/C(=O)N2c3ccccc3Sc3ccc(C(F)(F)F)cc32)cc(OC)c1OC
 : -7.31*, -0.38*
- O=C(NCc1ccco1)c1csc(Nc2ccccc2Cl)n1
 : -8.35*, 0.02*
- O=C(COC(=O)c1ccccc1O)Nc1ccc(S(=O)(=O)N2CCCCC2)cc1
 : i, -1.55
- COc1cc([N+](=O)[O-])ccc1NC(=O)NCCCN1CCCC1=O
 : i, 2.63

Next part
Results follow in this order: KCNQ2 inh, KCNQ2 inh baseline
- COCCNC(=O)/C(C#N)=C/c1cccc(OCc2ccccc2)c1
 : i, 0.03
- COCCNC(=O)c1ccccc1NC(=O)c1ccccc1N(C)S(=O)(=O)c1ccccc1
 : i, 2.46
- COc1cc(NC(=S)N2CCN(c3ccccn3)CC2)cc(OC)c1OC
 : i, -1.05
- CCn1c(SCc2ccccc2)nnc1-c1cccs1
 : i, -0.89
- O=C1NC(=S)N/C1=C/c1cc2c(cc1[N+](=O)[O-])OCO2
 : i, 0.79
- CCCCCCCCN1[C@@H](CC(=O)OC)c2cc(F)ccc2S1(=O)=O
 : -6.04*, -0.04*
- CC(C)(C)c1oc(C(=O)O)cc1CN1CCOCC1
 : i, 1.58
- O=C(COC(=O)/C(=C/c1cccs1)c1cccs1)NCc1ccccc1Cl
 : i, -1.25
- Cc1ccc(NC(=O)CSc2nnc(CNC(=O)c3ccco3)n2C)c(C)c1
 : i, 2.64
- O=C(c1cc(N2C(=O)C3C4CCC(C4)C3C2=O)ccc1Cl)N1CCN(c2ccccc2F)CC1 (stereo unspecified)
 : i, 1.39
- O=C(c1cccc(C(F)(F)F)c1)N1CCOc2ccccc21
 : i, 0.86
- O=C(Nc1cccc([N+](=O)[O-])c1)c1ccc(-c2ccccc2)cc1
 : i, -0.44
- O=C(NCCCn1ccnc1)c1ccc(Cl)c(Cl)c1
 : i, 2.15
- COc1ccc(-c2cc(C)no2)cc1S(=O)(=O)NCC1CCN(Cc2cc(C)ccc2C)CC1
 : i, 0.22
- CCOC(=O)c1c(CN2CCCCC2)oc2ccc(O)cc12
 : i, 0.57

Next part.
Results follow in this order: KCNQ2 inh, KCNQ2 inh baseline
- N#C/C(=C\C1=C(N2CCOCC2)C(=C\c2ccc(Cl)cc2)/CC1)C(=O)Nc1ccccc1F
 : i, 1.25
- COc1ccc(CC(=O)Nc2ccc3nc(C)sc3c2)cc1OC
 : i, 0.39
- CCCC(C(=O)Nc1ccc(S(=O)(=O)N2CCCC2)cc1)c1ccccc1 (stereo unspecified)
 : i, -0.24
- O=C(CSc1nnc(-c2ccccc2O)n1-c1ccccc1)Nc1cccc(C(=O)O)c1
 : i, -3.25
- O=C(NCC(c1ccco1)N1CCCC1)c1cccc(NS(=O)(=O)c2ccccc2)c1 (stereo unspecified)
 : i, 0.04
- COC(CNC(=O)c1ccc2c(c1)ncn2-c1cccc(F)c1)OC
 : i, 1.7
- COc1cccc(-n2c(SCC(=O)Nc3ccc4c(c3)CCC4)nc3ccccc3c2=O)c1
 : i, 0.01
- CCOc1cc([N+](=O)[O-])cc(/C=N/NC(=O)c2c(-c3ccccc3)noc2C)c1O
 : i, -1.53
- O=c1[nH]c(/C=C\c2cccs2)nc(O)c1[N+](=O)[O-]
 : i, -0.17
- COc1ccc(C(=O)NC2CCN(C(=S)Nc3ccccc3)CC2)cc1
 : i, -0.68
- CC(=O)c1ccc(N=Nc2c(C)[nH]n(-c3ccccc3)c2=O)cc1
 : i, -1.08
- Cc1cccc2cc(C#N)c(SCC(=O)NCC3CCCO3)nc12 (stereo unspecified)
 : i, 1.14
- CCCCn1c(/N=C/c2cc(OC)ccc2O)nc2ccccc21
 : i, 1.61
- COc1ccc(NC(=O)CSC2=NCCN2)cc1
 : i, -1.2
- COc1cc(SC)ccc1C(=O)NCCOc1ccc(F)cc1
 : i, -1.32

Further compounds.
Results follow in this order: KCNQ2 inh, KCNQ2 inh baseline
- S=C(NCc1ccc(Cl)cc1)NCc1ccccn1
 : i, 1.17
- COc1ccc(/C=C/c2nc(-c3ccccc3)cc(=O)[nH]2)cc1
 : i, 0.07
- CCOc1ccccc1NC(=O)CSC1=C(C#N)C(c2ccco2)C(C(=O)Nc2nc3ccccc3s2)=C(C)N1 (stereo unspecified)
 : i, 0.8
- CCn1cc2c(c1-c1cccc(C)c1)c(=O)n(C)c(=O)n2C
 : i, -0.4
- COc1ccc(C(CC(=O)Nc2nccs2)C(C)C)cc1 (stereo unspecified)
 : i, 0.1
- COCCn1c(SCc2cccc([N+](=O)[O-])c2)nc2ccccc2c1=O
 : i, 0.48
- C=CCN(CC=C)C(=O)c1ccccc1NC(=O)c1ccccc1C
 : i, 1.08
- O=C(COC(=O)c1ccccc1Nc1ccc(SC(F)F)cc1)NC1CC1
 : i, 0.4
- NC1=NC(=O)/C(=C/c2ccccc2OS(=O)(=O)c2ccccc2)S1
 : i, 1.54
- CCC(=O)Nc1cccc(-c2cn3ccccc3n2)c1
 : i, 1.68
- O=C1CC2(CC(c3ccc(Cl)cc3)=NO2)C(=O)N1c1ccccc1 (stereo unspecified)
 : i, -1.94
- O=C(C(=O)N1CCc2ccccc2C1)N1CCc2ccccc2C1
 : i, 0.47
- CCOC(=O)c1c(NC(=O)C2CCCN(S(=O)(=O)c3ccccc3)C2)sc2c1CCCC2 (stereo unspecified)
 : i, 0.02
- COc1ccc(CCNC(=O)CSc2nc(O)c(CC(C)C)c(=O)[nH]2)cc1OC
 : i, 0.33
- Cc1ccc(CNC(=O)CCCCCNC(=O)N2CCn3c2nc2ccccc23)cc1
 : i, 0.03

Next part
Results follow in this order: KCNQ2 inh, KCNQ2 inh baseline
- CCSc1nnc(NC(=O)c2csc3c2CCCC3)s1
 : i, 1.03
- Cc1cc(NC(=O)CCC(=O)N(c2ccc(C)c(F)c2)C(C(=O)NC2CCCC2)c2ccco2)no1 (stereo unspecified)
 : i, 1.21
- Cc1cccc(NC(=O)C2C(c3ccccc3)C2(Cl)Cl)c1 (stereo unspecified)
 : i, -0.18
- CC(C)C(c1nnnn1Cc1ccc2c(c1)OCO2)N1CCN(c2ccccc2)CC1 (stereo unspecified)
 : i, -0.71
- N#C/C(=C/c1ccc(N2CCCCCC2)o1)c1ccc(Cl)cc1
 : -8.38*, 3.15*
- CCN(C(=S)Nc1cc(S(=O)(=O)N2CCOCC2)ccc1Cl)c1cccc2ccccc12
 : i, -0.82
- Cc1ccc(CC(=O)NCC(O)c2ccccc2)cc1 (stereo unspecified)
 : i, -1.19
- COc1cc(C(=S)N2CCOCC2)ccc1OC(=O)Cc1ccc(F)cc1
 : i, -0.03
- Cc1ccc(-c2cccc(NC(=O)C3C(C(=O)O)[C@@H]4C=C[C@H]3C4)c2)o1 (stereo partly specified)
 : i, -0.79
- CCCCN(C(=O)c1cc(=O)[nH]c2ccccc12)c1c(N)n(CCC)c(=O)[nH]c1=O
 : i, 1.17
- Cc1ccc(-c2oc3ccccc3c(=O)c2OCC(=O)O)cc1
 : i, 0.46
- Cc1[nH]n(-c2ccccc2)c(=O)c1N=Nc1cccc(Cl)c1
 : i, 0.42
- Cc1cc(C)cc(N(CC(=O)NC2CCCCC2)C(=O)c2ccc(C)s2)c1
 : i, -0.13
- Cc1nc(NC(=O)c2cc3ccccc3o2)ccc1Br
 : i, -1.21
- COc1ccccc1C(=O)Nc1onc(C)c1C#N
 : i, -0.03

Entries above that contain a CF3 group (four):
Results follow in this order: KCNQ2 inh, KCNQ2 inh baseline
- COC(=O)c1cc(=O)n(-c2ccc(C(F)(F)F)cc2)[nH]1
 : i, -0.41
- O=C(C=C1CCN(c2ncc(C(F)(F)F)cc2Cl)CC1)NNC(=O)Nc1ccc(Cl)cc1
 : i, 0.89
- COc1cc(/C=C/C(=O)N2c3ccccc3Sc3ccc(C(F)(F)F)cc32)cc(OC)c1OC
 : -7.31*, -0.38*
- O=C(c1cccc(C(F)(F)F)c1)N1CCOc2ccccc21
 : i, 0.86

3 entries from above, arranged by formula weight, descending.
Results follow in this order: KCNQ2 inh, KCNQ2 inh baseline
- CCCCN(C(=O)c1cc(=O)[nH]c2ccccc12)c1c(N)n(CCC)c(=O)[nH]c1=O
 : i, 1.17
- Cc1nc(NC(=O)c2cc3ccccc3o2)ccc1Br
 : i, -1.21
- Cc1[nH]n(-c2ccccc2)c(=O)c1N=Nc1cccc(Cl)c1
 : i, 0.42

Going on with the list:
Results follow in this order: KCNQ2 inh, KCNQ2 inh baseline
- CCN1C(=O)N(C(C)=O)C2C1N(C(C)=O)C(=O)N2C(C)=O (stereo unspecified)
 : i, 0.08
- COc1cccc(/C=N/n2c(C)nc3ccccc32)c1OC
 : i, 1.73
- CCOC(=O)NCc1ccc(CNC(=O)OCC)cc1
 : i, -0.88
- CSc1nnc(-c2cccc(NC(=S)NN)c2)o1
 : i, -0.8
- NC(=O)NC(Cc1ccccc1)c1ccccc1 (stereo unspecified)
 : i, -0.49
- COc1ccc(C(C(=O)NC2CCCC2)N(Cc2ccco2)C(=O)c2snc(C(N)=O)c2N)cc1OC (stereo unspecified)
 : i, 1.57
- COc1cccc(CNS(=O)(=O)c2cccc(S(=O)(=O)N3CCOCC3)c2)c1
 : i, -1.28
- CCN1/C(=C/C=C/c2sc3ccccc3[n+]2CC)Sc2ccccc21
 : -6.89*, -0.14*
- CSc1ccc(-c2cccc([N+](=O)[O-])c2)nn1
 : i, -0.57
- O=C(O)c1cccc(CSc2nnc(COc3ccccc3)o2)c1
 : i, 0.55
- COC(=O)c1ccc(/C=N/NC(=O)CC(=O)NC(C)C)cc1
 : i, -0.64
- O=C(OCc1ccc(Cl)cc1)c1ccccc1C(=O)c1ccccc1
 : i, 0.47
- Cc1cc(C(=O)N2CCC(Cc3ccccc3)CC2)no1
 : i, -0.03

Only part of the results is shown, so the mix of outcomes need not match the whole.
